Ecoli rRNA inh: selective bacterial rRNA inhibition in E. coli; E. coli WT GFP vs humanized-ribosome RFP mutants, fluorescence, 24 h; stronger effect = lower value; DMSO median 0, no signal -100; GFP signal change (wild-type ribosome), % (test concentration not listed); actives 1.6% (n = 350,000); AID 720706;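 active = significant combined selectivity score with lowered wild-type GFP, culture density cut under 30%, mutant RFP and density less affected; inactive = any of these conditions unmet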; also: one replicate is shown; some compounds called inactive have numbers as strong as hits
Ecoli rRNA inh OD600: further read-out of Ecoli rRNA inh, marked with its call; OD600 change, %; measured here: OD600 growth;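 optical density of the mix in the first replicate; 0 = DMSO median and -100 = no signal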
Ecoli rRNA inh RFP: recorded beside Ecoli rRNA inh, whose call it bears; RFP signal change, %; measured here: RFP humanized mutant strains;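 first replicate; 0 = DMSO median and -100 = no signal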
Starred values were filed as active, the others as inactive; & = joins results of further samples. This is a subset; rates above refer to the full screens.

SMILES	Ecoli rRNA inh	Ecoli rRNA inh OD600	Ecoli rRNA inh RFP
C[C@@H]1CCCCO[C@@H](CN(C)C(=O)Nc2ccc3c(c2)OCO3)[C@@H](C)CN([C@H](C)CO)C(=O)c2cc(N(C)C)ccc2O1	5&5	4&5	-1.0&-1.5
CCC(=O)N1C[C@H](C)[C@H](OC)CN(C)C(=O)c2ccc(NC(=O)COC)cc2OC[C@@H]1C	2	4	-0.5
O=C(Nc1cccc(Oc2ccccc2)c1)C1Cc2c(-c3cccc(F)c3)ccnc2O1 (stereo unspecified)	7	4	3.5
C[C@@H]1CN([C@H](C)CO)C(=O)c2cc(NC(=O)Nc3ccccc3)ccc2O[C@@H]1CN(C)Cc1ccc(-c2ccccc2)cc1	-3	-7	3.4
C[C@H](CO)N1C[C@H](C)[C@H](CN(C)C(=O)NC2CCCCC2)OCCCC[C@H](C)Oc2ccc(NC(=O)Nc3ccc(C(F)(F)F)cc3)cc2C1=O	-1	13	-0.7
CNC[C@@H]1Oc2c(NC(=O)Nc3ccc(OC)cc3)cccc2C(=O)N([C@H](C)CO)C[C@H]1C	1	2	-2.7
COCC#Cc1ccc2c(c1)O[C@@H](CN(C)S(=O)(=O)c1ccc(C)cc1)[C@H](C)CN([C@H](C)CO)S2(=O)=O	-2	-19	3.1
C/C=C/c1cnc2c(c1)C(=O)N([C@H](C)CO)C[C@H](C)[C@H](CN(C)S(=O)(=O)c1ccccc1)O2	-1	-1	0.7
CCC(=O)Nc1ccc2c(c1)C(=O)N(C)C[C@H](OC)[C@H](C)CN(CC1CC1)[C@@H](C)CO2	1	3	-1.9
CC(C)[C@H]1CC=CC[C@@H](C)Oc2ccccc2C(=O)N(C)[C@H](C(C)C)C(=O)N1 (mixture of isomers)	-2	-5	-3.0
CCCC#Cc1ccc([C@@H]2[C@H]3CN(C(=O)Nc4ccccc4)CC(=O)N3[C@H]2CO)cc1	-6	-42	26
N#C[C@H]1[C@@H](c2ccccc2-c2ccccc2)[C@@H](CO)N1C(=O)Cc1cccnc1	-2	5	0.5
C/C=C/c1cnc2c(c1)C(=O)N([C@H](C)CO)C[C@@H](C)[C@@H](CN(C)C(=O)c1cnccn1)O2	6	11	-1.9
COc1ccc(S(=O)(=O)Nc2ccc3c(c2)CC(=O)N([C@H](C)CO)C[C@H](C)[C@H](CN(C)S(=O)(=O)c2ccc(Cl)cc2)O3)cc1	3	-13	3.2
C[C@@H]1CN([C@@H](C)CO)S(=O)(=O)c2ccc(-c3cccc(C#N)c3)cc2O[C@@H]1CN(C)C(=O)Nc1ccccc1F	-5	-14	-2.6
CCCNC(=O)Nc1ccc2c(c1)OC[C@H](C)N(C(=O)c1ccccc1F)C[C@H](C)[C@H](OC)CN(C)C2=O	-2	4	0.0
COc1ccc2c3c(n(C)c2c1)[C@H](CO)N(Cc1ccccc1F)CC31CN(CC2CC2)C1	3	8	0.5
C[C@@H]1CN([C@@H](C)CO)C(=O)c2cccc(NC(=O)CCCCCC(=O)Nc3ccccc3N)c2O[C@H]1CN(C)Cc1ccc(-c2ccccc2)cc1	0	8	-3.4
N#C[C@@H]1[C@H](c2ccccc2C2=CCCC2)[C@@H](CO)N1C(=O)c1cccc(F)c1	-1	3	0.5
N#C[C@H]1[C@@H](c2ccccc2C2=CCCC2)[C@H](CO)N1C(=O)C1CCCC1	-4	-19	1.6
O=C(C[C@H]1CC[C@H]2NC[C@@H](O)COC[C@@H]2O1)NC1Cc2ccccc2C1	3	5	-3.9
C[C@@H]1CCCCO[C@@H](CN(C)S(=O)(=O)c2ccc(Cl)cc2)[C@@H](C)CN([C@@H](C)CO)C(=O)c2cc(NC(=O)c3ccccc3)ccc2O1	1	0	3.6
CC(C)NC(=O)Nc1cccc2c1O[C@H](CN(C)C(=O)Nc1ccc(F)cc1)[C@@H](C)CN([C@@H](C)CO)C2=O	3	7	1.3
CO[C@H]1CN(C)C(=O)c2ccc(NC(=O)c3cc(C)on3)cc2OC[C@H](C)N(C(=O)C2CC2)C[C@H]1C	1	1	-1.6
C[C@H](CO)N1C[C@H](C)[C@H](CN(C)C(=O)C2CCC2)Oc2ncc(-c3ccccc3F)cc2C1=O	2	-2	-0.6
COC(=O)[C@H]1[C@H](CO)[C@H]2Cn3c(ccc(-c4ccccc4)c3=O)[C@H]2N1Cc1cccc(F)c1	-7	-21	5.1
C[C@@H]1CCCCO[C@H](CN(C)C(=O)c2ccccc2)[C@H](C)CN([C@H](C)CO)C(=O)c2cc(NS(=O)(=O)c3cccs3)ccc2O1	-3	-9	2.2
Cn1nc(C(C)(C)C)cc1C(=O)N1CCCCC1c1cc(C(=O)NCc2ccc(F)cc2)no1 (stereo unspecified)	-1	-11	5.7
COc1ccc(NC(=O)C(c2ccc(C#N)cc2)n2c(=O)c(-c3cc4ccccc4[nH]3)nc3ccccc32)cc1 (stereo unspecified)	1	2	6.3
Cc1nnc(Cc2ccco2)c2n[nH]c(C)c12	9	9	1.0
COc1ccccc1CCn1cnc(-c2cccc(Br)c2)c1CC(C)C	-13	-21	19
C[C@@H]1CN([C@@H](C)CO)C(=O)c2cc(NS(C)(=O)=O)ccc2O[C@H]1CN(C)Cc1ccc(-c2ccccc2)cc1	0	1	2.8
O=C(O)C1C=CC(C(=O)O)c2ccccc21 (stereo unspecified)	9	8	-0.6
COc1ccccc1NC(=O)Cc1nc(=O)[nH]c(=O)[nH]1	-1	11	0.2
CC(C)(C)S(=O)N1Cc2cc(C(=O)NCc3ccc4c(c3)OCO4)nc(-c3cccc(-c4cc5ccccc5o4)c3)c2[C@H]1CCO (stereo partly specified)	3	12	0.4
Cc1noc(C)c1NC(=O)N(C)C[C@@H]1Oc2ccc(NC(=O)Cn3cnnn3)cc2C(=O)N([C@@H](C)CO)C[C@@H]1C	1	4	-0.2
C[C@H]1CN([C@@H](C)CO)C(=O)Cc2cc(NC(=O)Cc3cn(C)c4ccccc34)ccc2O[C@@H]1CN(C)CC1CCCCC1	-4	2	1.8
C[C@H](CO)N1C[C@H](C)[C@@H](CN(C)S(=O)(=O)c2cccs2)OCCCC[C@H](C)Oc2ccc(NC(=O)Nc3ccc(F)cc3)cc2C1=O	-2	4	0.4
C[C@@H]1CN([C@@H](C)CO)C(=O)c2cccc(NC(=O)Nc3ccccc3)c2O[C@@H]1CN(C)C(=O)Nc1ccc(C(F)(F)F)cc1	-1	1	0.7
COc1cccc(C#Cc2ccc3c(c2)O[C@@H](CN(C)C)[C@H](C)CN([C@@H](C)CO)S3(=O)=O)c1	2	-25	27

Reprinted from the results shown, eleven compounds:
SMILES	Ecoli rRNA inh	Ecoli rRNA inh OD600	Ecoli rRNA inh RFP
CO[C@H]1CN(C)C(=O)c2ccc(NC(=O)c3cc(C)on3)cc2OC[C@H](C)N(C(=O)C2CC2)C[C@H]1C	1	1	-1.6
C[C@H](CO)N1C[C@H](C)[C@H](CN(C)C(=O)C2CCC2)Oc2ncc(-c3ccccc3F)cc2C1=O	2	-2	-0.6
COC(=O)[C@H]1[C@H](CO)[C@H]2Cn3c(ccc(-c4ccccc4)c3=O)[C@H]2N1Cc1cccc(F)c1	-7	-21	5.1
C[C@@H]1CCCCO[C@H](CN(C)C(=O)c2ccccc2)[C@H](C)CN([C@H](C)CO)C(=O)c2cc(NS(=O)(=O)c3cccs3)ccc2O1	-3	-9	2.2
Cn1nc(C(C)(C)C)cc1C(=O)N1CCCCC1c1cc(C(=O)NCc2ccc(F)cc2)no1 (stereo unspecified)	-1	-11	5.7
COc1ccc(NC(=O)C(c2ccc(C#N)cc2)n2c(=O)c(-c3cc4ccccc4[nH]3)nc3ccccc32)cc1 (stereo unspecified)	1	2	6.3
Cc1nnc(Cc2ccco2)c2n[nH]c(C)c12	9	9	1.0
COc1ccccc1CCn1cnc(-c2cccc(Br)c2)c1CC(C)C	-13	-21	19
C[C@@H]1CN([C@@H](C)CO)C(=O)c2cc(NS(C)(=O)=O)ccc2O[C@H]1CN(C)Cc1ccc(-c2ccccc2)cc1	0	1	2.8
O=C(O)C1C=CC(C(=O)O)c2ccccc21 (stereo unspecified)	9	8	-0.6
COc1ccccc1NC(=O)Cc1nc(=O)[nH]c(=O)[nH]1	-1	11	0.2

New compounds follow.
SMILES	Ecoli rRNA inh	Ecoli rRNA inh OD600	Ecoli rRNA inh RFP
CC1(C(=O)Nc2ccc3c(c2)OCCO3)CCC(=O)N1CCOc1ccccc1 (stereo unspecified)	-5	-10	-4.2
C[C@H]1CCCCO[C@H](CN(C)S(=O)(=O)c2cccs2)[C@@H](C)CN([C@@H](C)CO)C(=O)c2cc(NC(=O)CCCN(C)C)ccc2O1	4	7	4.1
COCC(=O)Nc1ccc2c(c1)OC[C@H](C)N(Cc1ccccc1F)C[C@H](C)[C@H](OC)CN(C)C2=O	-4	-9	0.1
CC(C)CCN1C(=O)CSCC1(C)C(=O)Nc1ccc2c(c1)OCCO2 (stereo unspecified)	0	-24	-0.3
C[C@@H]1CN([C@H](C)CO)C(=O)c2cccc(NC(=O)c3cnccn3)c2O[C@@H]1CN(C)Cc1ccc(C(=O)Nc2ccccc2N)cc1	2	4	0.4
O=S(=O)(c1ccc(C(F)(F)F)cc1)N1CCCc2nc(-c3ccccc3)ccc21	9	-16	0.3
CC=Cc1ccc2n(c1=O)C[C@@H]1[C@@H](CO)[C@H](C(=O)NCCN3CCCC3)N(C(=O)NCCC)[C@H]21 (mixture of isomers)	4	-14	-0.6
C[C@H](CO)N1C[C@H](C)[C@H](CN(C)C(=O)Nc2ccc(C(F)(F)F)cc2)Oc2ncc(Br)cc2C1=O	-7&-1	-42&-6	8.5&-0.8
COc1cccc(C(=O)Nc2ccc3c(c2)OC[C@@H](C)N(C(=O)C2CC2)C[C@@H](C)[C@H](OC)CN(C)C3=O)c1	-5	-7	0.1
Cc1noc(C)c1S(=O)(=O)Nc1ccc2c(c1)C(=O)N([C@H](C)CO)C[C@H](C)[C@H](CN(C)C(=O)Nc1ccc(F)cc1)OCCCC[C@H](C)O2	-3	-6	0.4
O=C(Nc1cccc(F)c1)N1CCCCN2[C@@H](CO)[C@@H](c3ccc(C#CC4CC4)cc3)[C@@H]2C1	-60	-77	-17
CC1(C(=O)N2CCN(C(=O)c3ccco3)CC2)CCN1Cc1ccccc1OC(F)F (stereo unspecified)	11	17	-2.0
CCc1nc2c(OCc3ccccc3)cccn2c1N(C)C(C)=O	10	-2	2.9
C[C@@H]1CCCCO[C@H](CN(C)CC2CCCCC2)[C@H](C)CN([C@@H](C)CO)C(=O)c2cc(NS(=O)(=O)c3ccc(Cl)cc3)ccc2O1	-55	-67	-11
COc1ccc(SCC(O)Cn2c3ccccc3c3ccccc32)c(OC)c1 (stereo unspecified)	-11	-5	-1.4
C[C@@H]1CN([C@@H](C)CO)C(=O)c2cc(NC(=O)Nc3ccc(F)cc3)ccc2O[C@@H](C)CCCCO[C@H]1CN(C)C(=O)CCCN(C)C	3	0	-2.0
C[C@@H]1CN([C@@H](C)CO)C(=O)c2ccccc2-c2ccccc2CO[C@H]1CN(C)C(=O)Nc1cccc(C(F)(F)F)c1	-1	1	1.4
COc1ccc(-c2ccc([C@@H]3[C@@H](C#N)N(C(=O)C4CCCCC4)[C@H]3CO)cc2)cc1	1	12	-0.8
CNC[C@H]1OCCCC[C@@H](C)Oc2ccc(NS(C)(=O)=O)cc2C(=O)N([C@@H](C)CO)C[C@H]1C	6	5	0.5
COc1ccc(-c2ccc([C@H]3[C@H](CO)N4CCCCN(CC5CCOCC5)C[C@@H]34)cc2)cc1	0	2	0.6
C[C@@H]1CN([C@@H](C)CO)C(=O)c2cc(-c3ccc(F)cc3)cnc2O[C@@H]1CN(C)Cc1cncnc1	1	4	-1.8
O=C([C@@H]1[C@@H](CO)[C@@H]2Cn3c(cccc3=O)[C@@H]2N1Cc1ccccn1)N1CCC(Cc2ccccc2)CC1	2	-8	14
C[C@@H]1CN([C@H](C)CO)C(=O)Cc2cc(NC(=O)Nc3ccccc3)ccc2O[C@H]1CN(C)Cc1ccc(Oc2ccccc2)cc1	5	14	1.1
C[C@H]1CN([C@@H](C)CO)C(=O)Cc2cc(NC(=O)Cc3cn(C)c4ccccc34)ccc2O[C@@H]1CN(C)C(=O)Nc1ccc2c(c1)OCO2	0	-8	-0.5
CCCCn1c(N)c(N(CCOC)C(=O)c2oc3c(Cl)cccc3c2C)c(=O)[nH]c1=O	4	0	0.7
C[C@@H]1CN([C@H](C)CO)C(=O)c2cc(NS(C)(=O)=O)ccc2O[C@@H]1CN(C)S(=O)(=O)c1cn(C)cn1	3	4	-1.3
CCC(=O)N1CC[C@H]2[C@H](CO)Nc3ccc(-c4cccc(C#N)c4)cc3[C@H]21	-3	-5	-6.5
COCCNC(=O)c1[nH]c(C(F)(F)F)nc1-c1ccccc1	-1	6	-2.2
C[C@H](CO)N1C[C@H](C)[C@@H](CN(C)C(=O)Nc2ccc3c(c2)OCO3)Oc2c(NS(=O)(=O)c3ccc(Cl)cc3)cccc2C1=O	-1	3	-1.3
CO[C@H]1CN(C)C(=O)c2cc(NC(C)=O)ccc2OC[C@H](C)N(Cc2cc(F)ccc2F)C[C@H]1C	-5	-4	0.4

Screens from PubChem.
